ClpP mod = qHTS Assay for Activators of ClpP. 340,000 compounds, 1.9% hits. Potency, µM (doses to about 57.5 µM), for the others: at the highest dose activity change, negative = active. ATP-dependent Clp protease proteolytic subunit (Bacillus subtilis (strain 168)), P80244. purified B. subtilis ClpP, FRET peptide cleavage, 20 min; active = well fitted falling curve with a large enough effect; inconclusive = small, poorly fitted or top-dose-only effect; inactive = no such curve, though single readings can be large or run the other way; also: potency is read from the fitted curve at half-maximal effect; the source files actives as falling curves though it sought activators and does not explain the sign; nearly all actives have a fitted effect of over 65% in size; many hits overshoot -100%
Target sequence (P80244 whole entry, looked up): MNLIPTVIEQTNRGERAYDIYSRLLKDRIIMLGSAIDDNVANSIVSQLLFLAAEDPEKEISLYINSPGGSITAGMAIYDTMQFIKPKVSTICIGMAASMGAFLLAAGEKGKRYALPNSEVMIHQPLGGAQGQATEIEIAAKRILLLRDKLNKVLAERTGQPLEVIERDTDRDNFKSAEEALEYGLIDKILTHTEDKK
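FRET quenching reversal measured ClpP activation: 10 microg/mL B. subtilis ClpP at pH 8 with the FRET-FV decapeptide, read at 430 nm after 320 nm excitation. The 20-min minus 0-min signal was scaled between DMSO/no-enzyme wells and ADEP (5.8 microM final).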
gsp agonist = gsp mutant agonism; gsp mutant cells, cAMP HTRF, 30 min; control for the full effect not named in the record; Potency, µM (highest dose often 76.9 µM), without a hit: at the top dose activation (cAMP increase), hits mostly activators; 340,000 compounds, 0.13% hits; AID 624287; active = well fitted activation curve with a large enough effect; inconclusive = small, poorly fitted or top-dose-only effect, or another doubt; inactive = no such curve, though single readings can be large or run the other way; cell line not stated here;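 also: phosphodiesterase inhibitor Ro 20-1724 added with compounds to block cAMP breakdown; potency is read from the fitted curve at half-maximal effect; nearly all actives have a fitted effect of over 60% in size; about a fifth of the inactives were tested at one dose only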
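Cells in DMEM/10% FBS with G418 were pretreated with compounds in DMSO plus […] (300 uM stock) for 30 min at 37C. cAMP was measured by HTRF (cAMP-d2 plus anti-cAMP antibody-K) after 30 min at room temperature.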
Sfp inh = inhibitors of Bacillus subtilis Sfp phosphopantetheinyl transferase; Potency, µM, inactives show max response, negative = inhibition, actives largely listed as inhibitors; Q9F4F7; 310,000 compounds, 3.5% hits; Biochemical Sfp PPTase activity, qHTS; AID 1490; active = well fitted inhibition curve with a large enough effect; inconclusive = small, poorly fitted or top-dose-only effect, or another doubt; inactive = no such curve, though single readings can be large or run the other way;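 also: the enzyme is Sfp with the accession as filed and its product quenches rhodamine fluorescence; potency is read from the fitted curve at half-maximal effect; 0% = enzyme reaction without inhibitor and -100% = no enzyme wells; top concentration of the series not given in the record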
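With Hepes-Na pH 7.6 buffer containing 10 mM MgCl2, Sfp (15 nM) modified BHQ-2-YbbR (12.5 uM) using rhodamine-CoA (5 uM). Two reads 30 minutes apart at 525/598 nm yielded each well's rate.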
D2 PAM = positive allosteric modulators of human D2 dopamine receptor; potentiation, % (no concentration beside the values); 360,000 compounds, 0.23% hits; DiscoveRx D2 beta-arrestin cells, luminescence, 90 min; 100% = 57 uM dopamine signal; active = potentiation of 50% or more; inconclusive = 30% to 50%; inactive = 30% or less;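 also: compound concentration not given in the record; tested on top of an EC20 dose of dopamine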
Target sequence (P14416 whole entry, looked up): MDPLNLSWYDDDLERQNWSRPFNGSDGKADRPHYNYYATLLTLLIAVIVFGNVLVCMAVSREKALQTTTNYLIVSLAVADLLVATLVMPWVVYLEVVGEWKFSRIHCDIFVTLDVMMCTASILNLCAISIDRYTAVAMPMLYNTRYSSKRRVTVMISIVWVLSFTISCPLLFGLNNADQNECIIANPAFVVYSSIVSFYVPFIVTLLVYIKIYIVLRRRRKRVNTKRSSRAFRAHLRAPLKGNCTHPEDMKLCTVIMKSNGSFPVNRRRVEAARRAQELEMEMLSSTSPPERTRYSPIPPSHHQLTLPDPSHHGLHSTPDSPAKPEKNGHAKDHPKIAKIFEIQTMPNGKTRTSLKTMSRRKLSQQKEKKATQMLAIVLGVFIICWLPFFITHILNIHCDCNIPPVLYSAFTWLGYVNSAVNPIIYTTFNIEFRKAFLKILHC
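PathHunter D2 cells, attached overnight at 37 deg C, received compound in DMSO plus dopamine at EC20 (50 nM final) for 90 min at 37 deg C. Beta-arrestin recruitment was read as luminescence after 1 h with detection reagent at ambient temperature.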
gsp antagonist = gsp mutant antagonism | Potency, µM (doses to about 76.9 µM), for inactives: at the top dose activity change, negative = inhibition, usual class: inhibitors | gsp-mutant cells, cAMP HTRF, 30 min; control for the full effect not named in the record | AID 624288 | 340,000 compounds, 0.4% hits; active = falling curve of any shape with a large fitted effect; inconclusive = falling curve, mostly with a smaller effect; inactive = flat or rising curve; cell line not stated here;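 also: intracellular cAMP measured with PDE inhibitor Ro 20-1724 present during compound exposure; potency is read from the fitted curve at half-maximal effect; % is scaled to controls: 0 for no effect and ±100 for the full control effect; nearly all actives have a fitted effect of over 65% in size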
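Measurement of cellular cAMP by homogeneous time-resolved fluorescence following a 30 min compound exposure at 37C. The PDE inhibitor […] was present throughout; the assay buffer was DPBS with 0.05% BSA and 0.005% Tween 20.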
Menin MLL FP FL = menin-MLL binding inhibition, fluorescein peptide. Fluorescence polarization, fluorescein-MLL peptide displacement from menin. FP activity change, % at 61.4 µM. 290,000 tested, under 10 active; inconclusive = falling polarisation curve, or a change in total fluorescence; inactive = total fluorescence flat and polarisation flat or rising; no compound was filed as active; the % refers to the polarisation; negative = inhibition;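 also: % of control where 0% means no effect; inhibitors lower the polarisation; unlabelled MLL peptide was the positive control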
TRPV1 PAM = potentiators of human vanilloid receptor 1 (TRPV1); potentiation, % at 8.33 µM; 320,000 compounds, 0.02% hits; AID 540277; TRPV1-expressing cells, Fluo-8 calcium influx, capsaicin EC20 potentiation; host cell line not named in the record; control for the full effect not named in the record; active means potentiation above 80%; inconclusive means 30% to 80%; inactive means below 30%; also: 0% is about no effect
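Cells expressing TRPV1 were dye-loaded with Fluo-8 and read kinetically: 10 s baseline, 3 min after compound (agonist portion), then 2 min after EC20 capsaicin (allosteric enhancer portion). Calcium-bound dye fluorescence at 480/520 nm.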
The depositor's hits bear a star; u = inconclusive; x = no result given; [ ] = remark or other dose. Rows are unselected; overall some 5.1% were active at least once.

Each structure is followed by: Menin MLL FP FL, Sfp inh, TRPV1 PAM, ClpP mod, gsp agonist, gsp antagonist, D2 PAM
1: COc1ccccc1CNS(=O)(=O)c1ccc(N2CCCC2)cc1Br
    x, x, x, 0.5%, x, -18%, -12
2: CCCC(=O)Nc1ccc(NCc2ccc(C)s2)cc1
    6.4, 15%, 9, 4.1%, 24%, -5%, -3
3: CCCCn1nnnc1NCc1ccc(C)cc1
    0.2, -1%, 6, -0.7%, 0%, 10%, -2
4: CCOC(=O)C1Cn2c(nc3c(c2=O)C2(CCCC2)Cc2ccccc2-3)S1 (stereo not given)
    0.6, 1%, 2, 28µM*, 2%, -9%[15.4 µM], -31
5: CC(C)c1ccc(N(C(=O)CNC(=O)c2ccco2)C(C(=O)NC2CCCC2)c2cccnc2)cc1 (stereo not given)
    -0.5, 3%, 4, 0.1%, 1%[15.4 µM], -14%, -7
6: O=C(O)C1=C[C@@H](c2ccc(F)cc2)C[C@@H](OCCCCO)O1
    2.3, 9%, -2, -4.4%, x, 15%, -9
7: COC(=O)C1=C(N)Oc2cc(C)n(Cc3cccnc3)c(=O)c2C1c1cccc(OC)c1OC (stereo not given)
    7.1, 7%, 1, 0.8%, 37%, 19%, -18
8: Cc1nnc(SCc2ccccc2)[nH]c1=O
    -1.0, 5%, 16, x, 7%[15.4 µM], -10%, -2
9: Cn1ccnc1SCC(=O)Nc1ccc2c(c1)OC(F)(F)O2
    -1.9, 9%, -9, x, x, x, x
10: COc1cc(NC(=O)COC(=O)Cc2ccsc2)cc(OC)c1
    x, x, 6, -0.5%, -39%[inhibitor], 8%, 0
11: O=C(c1ccc(F)cc1)C1CCN(Cc2ccccc2)CC1
    x, x, x, 0.3%, -41%[inhibitor], 12%, -67
12: CCC1C(=O)NCCN1C(=O)c1ccc(OC)c(OC2CCN(C(C)=O)CC2)c1 (stereo not given)
    x, -3%, -5, 1.0%, 2%, 17%, 9
13: COC(=O)c1cccc2c1-c1ccccc1/C2=N/O
    1.5, -17%, -8, -17%, -1%, -1%, -11
14: CCN(CCNC(=O)C1CCN(S(=O)(=O)c2cccc3cccnc23)CC1)c1ccccc1
    1.8, 7%, 8, -0.9%, -2%, -27%, -25
15: N#CCN1C(=S)N=C(Nc2cccc(Cl)c2)C12CCCCC2
    7.9, 8%, 13, -2.2%, -2%, -7%, -29
16: COc1ccc(-c2cc(C(=O)N3CCCCCC3)c3ccccc3n2)cc1
    x, x, 5, 6.3µM*, -5%, -33%, -31
17: COC(=O)c1ccc(NC(=O)CN2C(=O)NC3(CCC(C)CC3)C2=O)cc1 (stereo not given)
    x, x, x, -0.2%, -4%, 9%, -3
18: O=C(Cn1nc(CNc2ccc(Cl)cc2)[n+]2c1CCCCC2)c1ccccc1
    5.7, -11%, -8, 3.6%, 6%[15.4 µM], 10%, -11
19: O=C(NCc1ccccc1)N1CCN(c2ccccc2F)CC1
    -1.6, 9%, -19, 2.4%, -8%, 11%, -8
20: O=C(CN1C(=O)C2C3CC(C(Br)C3Br)C2C1=O)N1CCOCC1 (stereo not given)
    -5.1, 1%, -5, -3.8%, 5%, -9%, 3
21: CC1CCCCN1CCn1c(=S)[nH]c2ncccc2c1=O (stereo not given)
    0.5, -21%, -5, -18%, 3%, 10%, -12
22: COC1CCN(C(=O)C2CCC(=O)N(C3CCCCCC3)C2)CC1 (stereo not given)
    x, 15%, 8, 0.4%, 16%, 16%, -3
23: CCC1C(C#N)=C(SC)NC2=C1C(=O)CC(C)(C)C2 (stereo not given)
    5.5, 19%, -12, -9.7%, -30%, -19%, -7
24: NC(=O)c1ccc(NC(=O)COC(=O)c2c[nH]c3ccccc23)cc1
    x, x, u, -3.1%, 2%, 3%, -12
25: Cc1ccc(C(=O)Nc2cccc(NC(=O)c3ccc(C)c([N+](=O)[O-])c3)n2)cc1[N+](=O)[O-]
    15, -22%, 11, -2.5%, 11%[15.4 µM], -4%, 5
26: COC(=O)CCC(=O)NC(=S)Nc1ccc(S(=O)(=O)Nc2cc(OC)nc(OC)n2)cc1
    -0.3, -3%, -1, -2.2%, -70%[inhibitor], -1%, -21
27: O=C1C=C(c2cc3ccccc3s2)CCC1
    x, x, x, -5.1%, u, -14%, -15
28: CC(=O)NC(C)c1ccc(Cl)c(Cl)c1 (stereo not given)
    3.6, 31%, x, -0.2%, 2%, -1%, 2
29: COc1ccccc1N(CC(=O)N1CCc2ccccc2C1)S(C)(=O)=O
    -3.9, 11%, 0, x, 13%[15.4 µM], -8%, -3
30: COc1ccc(N(C(=O)COc2ccccc2)C2C=CS(=O)(=O)C2)cc1 (stereo not given)
    5.2, 14%, u, -1.9%, 5%, -1%, 4
31: O=C(Nc1ccc(F)cc1)OCCOc1ccc(Br)cc1
    1.7, -5%, -27, -0.3%, -39%[inhibitor], 4%, 16
32: COc1ccc(N=c2oc3cc(O)ccc3cc2C(=O)Nc2ccccn2)cc1OC
    1.4, 12%, 16, -18%, -5%, u, -9
33: Cc1ccc(C2=N/C(=C\N3CCCCC3)C(=O)O2)cc1
    2.7, 50µM*, -1, -4.2%, -3%, -4%, -25
34: O=C1CCC(C(=O)OCC(=O)Nc2ccc(Cl)cc2C(F)(F)F)=NN1
    x, x, x, -3.9%, -67%[inhibitor], 7%, 1
35: CCOc1cc(/C=N/NC(=O)OC)ccc1OCCSc1ccc(Cl)cc1
    2.1, -8%, 4, -0.9%, -25%, 6%, 2
36: COC(=O)c1sc2cc(C(F)(F)F)cnc2c1-c1ccccn1
    -3.1, 9%, -1, x, 3%[15.4 µM], 6%, -5
37: CCC(=O)N1CCC(NC(=O)Nc2ccc(OC(F)(F)F)cc2)CC1
    x, x, -8, 2.0%, x, -1%, 9
38: CCc1ccc(S(=O)(=O)Nc2ccc(-c3ccc4nncn4n3)cc2)s1
    x, x, -11, -2.3%, 6%[15.4 µM], u, 4
39: O=S(=O)(Nc1nccs1)c1ccc(NS(=O)(=O)c2c(F)cc(F)c(Cl)c2F)cc1
    x, x, x, -1.0%, 16%[15.4 µM], -4%, -14
40: COc1cc(C(c2c(C)[nH][nH]c2=O)c2c(C)[nH][nH]c2=O)cc([N+](=O)[O-])c1O
    2.1, -14%, 15, x, 16%[15.4 µM], -20%, -9
41: C=CCNCC(=O)Nc1ccccc1SCC(=O)Nc1ccsc1C(=O)OC
    -1.1, -4%, 8, x, 18%[15.4 µM], -11%, -2
42: Cc1ccc(NC(=O)CSc2ccc(-c3ccc(-n4cccn4)cc3)nn2)c(C)c1
    x, x, 0, 0.4%, -24%, -9%, -10
43: Cc1cc(C)c(NC(=O)C2CSCCS2)c(C)c1 (stereo not given)
    0.7, 14%, 6, 0.3%, -7%, -8%, -7
44: O=c1c2ccccc2c(C=NC2CCN(Cc3ccccc3)CC2)c(O)n1Cc1ccc2c(c1)OCO2
    8.6, 7%, -5, x, x, x, x
45: CN(C)S(=O)(=O)c1cccc(C(=O)Nc2ccccc2)c1
    3.1, -22%, -19, x, 4%[15.4 µM], 2%, -4
46: CC1(C)CC2CC(C)(CN2C(=O)COC(=O)c2ccc(NC(=O)CC#N)cc2)C1 (stereo not given)
    x, x, x, 2.7%, 22%, -3%, -1
47: S=C(NCCCc1ccccc1)Nc1ccc(Cl)cc1
    2.4, 18%, -6, -1.4%, 10%, u, 6
48: COc1ccc(CNC(=O)C(NC(C)=O)C(=O)Nc2ccc(OC)cc2)cc1 (stereo not given)
    1.1, 14%, 14, 0.1%, -24%, 6%, 4
49: Cc1nc2cc(-c3ccc(Br)cc3)[nH]n2c(=O)c1Cl
    -0.4, -4%, 7, -4.9%, -47%[inhibitor], -4%, 7
50: NC(=O)CCSC(=S)N1CCOCC1
    0.6, 7%, -8, 1.7%, 20%, 5%, -2
51: Cc1ccccc1CN(C)CC(=O)Nc1ccccc1Oc1ccccc1
    8.2, -24%, -9, u, 11%, -5%, -8
52: COc1ccc(CNC(=O)CN(Cc2ccc(OC)cc2)C(=O)CCC(=O)Nc2ccccn2)cc1
    x, 17%, 4, x, 4%, -4%, -5
53: COc1ccc(OC)c(-n2cnc3cc(C(=O)NCCCN4CCOCC4)ccc32)c1
    -4.8, -9%, -6, -2.3%, -19%, 1%, -9
54: COC(=O)c1cc(Nc2cc(C)nc3ncnn23)cc(C(=O)OC)c1
    0.9, -4%, 9, -4.2%, 4%, -6%, 0
55: CCOC(=O)C1CCCc2c1[nH]c1ccc(Cl)cc21 (stereo not given)
    -2.9, 7%, -10, x, 3%[15.4 µM], 1%, -8
56: COc1ccc(CNC(=O)c2cccs2)cc1
    6.6, 10%, -13, -1.1%, 0%, 1%, 3
57: Cc1ccc(O)c(NC(=O)c2cc3nc4c(c(C(F)(F)F)n3n2)CCc2ccccc2-4)c1
    17, 22%, -2, 0.5%, 15%, 5%, 13
58: COc1ccccc1NC(=O)c1cc2c(cc1Cl)N1CCCCCC1=NS2(=O)=O
    x, x, x, u, 3%, 9%, -13
59: CC(=O)N1CCN(S(=O)(=O)c2cccc(C(=O)OCN3C(=O)c4ccccc4C3=O)c2)CC1
    -0.4, 13%, 5, x, -4%[15.4 µM], -3%, -1
60: CC1CCCCC1NC(=O)c1cc(=O)[nH]c2ccccc12 (stereo not given)
    x, x, 6, x, -12%[15.4 µM], 13%, 1
61: Cc1ccc(C(=O)NC2CCS(=O)(=O)C2)cc1S(=O)(=O)N1CCCC1 (stereo not given)
    x, 2%, -10, -1.3%, 39%, 7%, 0
62: O=C1c2ccccc2C(=O)N1CCCc1c[nH]c2ccc(Cl)cc12
    1.6, 13%, -6, -2.2%, -54%[inhibitor], -9%, -6

Compound activity (PubChem)
